# PrP 5UTR inh = inhibition of PrP 5' UTR reporter expression. cell-based PrP 5' UTR mRNA reporter, plate reader. inhibition, % (test concentration not listed). hit rate 0.35% among 340,000. AID 488862, 2010;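 active = every replicate at 50% or more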;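 note: 0 = median of the neutral control wells; tested in H4 reporter cells; numbers are from one replicate; inactives centre near -14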
# Sa ugtP lethal = growth inhibition of ugtP-null S. aureus, primary screen, RN4220 ugtP deletion, OD600 | 16 h; some inactives read as strong as hits | growth inhibition, % (concentration not given with the values) | hit rate 0.54% among 330,000 | AID 1259309, 2017;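 active = z-score under -3 and OD600 up to 0.15 on both plates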;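 note: plate controls were untreated wells for no effect and antibiotic for full effect; wells of about 80 µL received 100 nL stock; the first replicate is given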
# Mtb hypoxia inh = PubChem AID 1159583; M. tuberculosis hypoxia-regulated fluorescent reporter, fluorescence; fluorescence inhibition, % (test concentration not listed); hit rate 0.1% among 300,000;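 active = 35 to 45% if threefold the growth effect, above 45% if 1.5-fold the growth effect; inactive = the rest, general growth blockers included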;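 note: wells of about 50 µL received 100 nL stock; 0% = vehicle wells and 100% = reference inhibitor wells; whole bacteria with a GFP reporter of the hypoxia response; strong numbers were not always called active; many hits fall short of the cut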
# BJeLR viability = MLPCN primary cell-based screen for lethality selective to Ras in HRASV12 cells; BJeLR (HRASV12) viability, CellTiter-Glo ATP luminescence, 48 h; reference of the scale not given here; inhibition, % (test concentration not listed); hit rate 0.17% among 300,000;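 active = replicate mean above 50%; inconclusive = above 50% but judged a plate artefact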;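 note: 50 nL library stock added to about 25 µL; numbers are from one replicate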
# Bead autofluor = compound fluorescence in toxin protease inhibitor counterscreen. compound autofluorescence counterscreen, microsphere flow cytometry; active compounds read high. fluorescence intensity (no concentration beside the values). hit rate 3.1% among 360,000. AID 624483;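 active = at least 3 SD above the mean of all compounds, about 16000 in these data; inconclusive = too few beads counted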;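 note: 100 nL of 1 mM stock went into each well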
# Sa RN4220 lethal = growth inhibition of S. aureus RN4220, primary screen, OD600; 16 h; inhibition, % (concentration not given with the values); hit rate 0.33% among 330,000; AID 1259311, 2017;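 active = z-score of -3 or lower and OD600 up to 0.18 on both plates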;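 note: plate controls were untreated cells for no effect and reference antibiotic for full effect; stock transfer was 100 nL into about 80 µL; one replicate is shown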
# Mtb hypoxia inh growth = further read-out of Mtb hypoxia inh, marked with its call; growth inhibition, %; measured here: M. tuberculosis growth (absorbance);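 0% = vehicle and 100% = reference antibiotic; read after six days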
# An asterisk follows results filed as active; u = inconclusive; x = not tested or not shown.
SMILES,PrP 5UTR inh,Sa ugtP lethal,Mtb hypoxia inh,Mtb hypoxia inh growth,BJeLR viability,Bead autofluor,Sa RN4220 lethal
CC(NC(=O)c1ccc(N2CCNCC2)c([N+](=O)[O-])c1)C12CC3CC(CC(C3)C1)C2 (configuration not stated),5,22,7,5,9,x,1.5
CCOC(=O)C1CCN(c2ncnc3c2c(-c2ccccc2)cn3-c2ccccc2)CC1,-25,-6,-2,1,1,4553,-6.5
O=C(Cc1cccs1)NNC(=S)NCc1ccc(Cl)cc1,-9,-8,15,2,-3,2638,2.2
COc1ccc(C2c3c(ncn(CCCO)c3=N)Oc3ccc4ccccc4c32)cc1OC (configuration not stated),x,-3,-2,-6,1,x,-3.7
O=C(Nc1ccc(N2CCN(C(=O)c3ccco3)CC2)cc1)c1cccnc1Cl,-17,7,16,0,-5,2148,4.5
CN1CCN(C(=O)/C(=C/c2cccnc2)NC(=O)c2cccc(Br)c2)CC1,-20,2,16,13,0,6143,-1.5
Cc1[nH]c(=O)[nH]c(=O)c1S(=O)(=O)N1CCN(c2ccccc2)CC1,-21,23,4,2,1,5787,-3.5
COc1ccccc1NC(=O)C(Cc1ccc(Cl)cc1)c1nn[nH]n1 (configuration not stated),-6,3,-5,10,-3,10671,-0.5
O=C(Nc1cccc2ccccc12)c1ccc([N+](=O)[O-])o1,-31,39,23,19,-4,3608,24
c1ccc(SCCN2CCN(c3ccccc3)CC2)cc1,-24,7,0,-6,1,2954,1.2
O=C(C=Cc1ccccc1)Nc1ccc(NC(=O)c2ccco2)cc1,x,0,0,4,x,x,2.3
COc1ccc2nc(N3CCCC(C(=O)NCCCN4CCN(C)CC4)C3)sc2c1 (configuration not stated),-20,-5,7,8,2,3762,3.6
Cc1cccc(Oc2ncccc2[N+](=O)[O-])c1C,-21,1,15,11,x,3381,1.9
N#Cc1c(Cn2cncn2)nc(=O)n(-c2ccccc2)c1N,-16,5,-2,-2,-1,3241,3.4
C=CCn1c(SCc2ccc(OC)cc2)nnc1-c1cccnc1,-40,-7,-3,-2,-1,10197,-7.1
CC(=O)Nc1ccc(NC(=O)C(C)OC(=O)C(C)SCC(=O)Nc2ccc(C)cc2)cc1 (configuration not stated),-15,6,10,10,-6,5287,6.4
CC(/C=N/NC(=O)c1ccc(CN2c3cccc4cccc(c34)S2(=O)=O)cc1)c1ccccc1 (configuration not stated),-6,x,x,x,-12,2350,x
O=C(Oc1ccccc1)c1ccc(-n2cnnn2)cc1,6,1,-2,-6,6,3082,1.2
CCn1c(C)nnc1SCC(=O)NC1CCCC1,-5,3,-5,1,0,3916,6.1
CC1C(c2cccs2)=[N+]([O-])C(C)(C(=O)c2ccc(Cl)cc2)N1O (configuration not stated),-4,5,x,x,8,3198,-2.3
CCc1nc(SCC(=O)N2CCc3cc(OC)c(OC)cc3C2)c(C#N)cc1C,-21,-1,5,4,-7,3014,-9.0
Cc1cc(NC(=O)CCC(=O)N(CCC(C)C)CC(=O)NCC2CCCO2)no1 (configuration not stated),0,3,-8,-6,-1,3194,8.0
CCOc1ccccc1-c1n[nH]c(=S)o1,-20,-2,0,1,-7,17280*,7.9
Cc1ccc2c(c1C)OC(=O)CC2(C)C,-12,4,5,-4,11,9342,0.6
COc1ccccc1OCC(=O)NCCCn1ccnc1,-25,4,3,2,5,2809,2.7

# 2 entries from above, as tab-separated lines.
structure	PrP 5UTR inh	Sa ugtP lethal	Mtb hypoxia inh	Mtb hypoxia inh growth	BJeLR viability	Bead autofluor	Sa RN4220 lethal
Cc1[nH]c(=O)[nH]c(=O)c1S(=O)(=O)N1CCN(c2ccccc2)CC1	-21	23	4	2	1	5787	-3.5
COc1ccccc1NC(=O)C(Cc1ccc(Cl)cc1)c1nn[nH]n1 (configuration not stated)	-6	3	-5	10	-3	10671	-0.5

# The listing continues:
SMILES,PrP 5UTR inh,Sa ugtP lethal,Mtb hypoxia inh,Mtb hypoxia inh growth,BJeLR viability,Bead autofluor,Sa RN4220 lethal
CCN(CC)C(=O)CN(c1cccc([N+](=O)[O-])c1)S(=O)(=O)c1ccccc1,-15,1,3,0,1,5070,4.2
Cc1ccc(C(=O)N2CCN(S(=O)(=O)N3CCOCC3)CC2)cc1,-13,2,7,4,-4,3333,2.2
CN1CCN(c2ccc(CNS(=O)(=O)c3ccc(F)cc3Cl)cc2)CC1,-5,13,7,1,16,4475,6.0
Cc1cc(C(=O)N2CCN(C(=O)c3ccco3)CC2)ccc1[N+](=O)[O-],-28,0,15,-1,3,3869,2.5
Cc1nn(CC(=O)NCCc2ccc(Cl)cc2)c(C)c1[N+](=O)[O-],-30,3,3,-4,12,9412,-0.7
NC1=NC[C@H](c2ccccc2)N1CCc1cccc(F)c1,-15,x,x,x,2,3611,x
CCCc1cc(=O)[nH]c(SCC(=O)Nc2cc3c(cc2C(C)=O)OCO3)n1,-5,-9,2,8,-3,3351,-3.1
O=C(CSc1nnc(SCc2ccccc2)s1)NNC(=S)Nc1ccccc1,-13,8,6,11,7,2508,4.9
CCCCCNC(=O)C(C#N)c1nc2ccccc2nc1N1CCCC1 (configuration not stated),-14,-2,-6,1,0,2972,5.1
COc1cc(C(=O)N/C(=C\c2cn(C)c3ccccc23)C(=O)NCCCn2ccnc2)cc(OC)c1OC,-23,6,4,7,-3,5526,1.2
C(=N\N=C\c1ccncc1)/c1ccncc1,-11,x,x,x,2,3947,x
NC(CO)c1cn([C@@H](CCC(=O)O)C(=O)N2CCNCC2)nn1 (some centres not stated),-11,x,x,x,-3,3947,x
CCCNC(=O)c1cc(S(=O)(=O)N2CCCCC2)c[nH]1,16,13,4,1,-3,4559,7.6
COc1ccc(C(=O)NNC(=O)CNC(=O)C2CCCCC2)cc1,-9,5,10,8,2,3991,11
COc1cccc(/C=N/Nc2ccc(Cl)nn2)c1,-41,x,x,x,1,3685,x
COc1ccc(-n2c(C)nc3cc(C(=O)O)ccc32)cc1,-20,9,5,1,-7,8655,2.1
COCCCN(CC(=O)Nc1ccc(F)cc1)S(=O)(=O)c1cccs1,-13,8,25,35,x,2950,3.6
CC(=O)c1ccc(NC(=O)Cn2c3ccccc3c3nc(=O)cc(C)n32)cc1,x,10,10,11,3,4018,3.5
CCCCn1c(N)c(N(CCOC)C(=O)CSc2nnc(C)n2-c2ccc(OC)cc2)c(=O)[nH]c1=O,12,-2,-3,8,10,5730,-1.8
CCOC(=O)c1ccccc1NC(=O)c1ccc2nccnc2c1,-10,-9,7,2,-17,3671,5.3
COc1cc(/C=C2/SC(=O)N(Cc3ccccc3Cl)C2=O)ccc1OCc1ccncc1,-14,x,x,x,0,3133,x
CC1(C)C(c2ccccn2)=[N+]([O-])C(C)(C)N1O,-23,4,-1,3,0,4416,-0.4
C=CCN1C(c2cccc(C(F)(F)F)c2)=CS/C1=C(/C#N)c1nnc(N2CCOCC2)n1-c1ccccc1,-20,16,9,9,7,2559,0.4
CCn1c2ccccc2c2cc(/C=N/NC(=O)c3ccccc3)ccc21,-15,x,x,x,1,4144,x
CN(C)C(=O)c1cnc(-c2ccccc2)nc1-c1ccccc1,-14,19,10,-1,-3,2896,3.7

# (more compounds)
SMILES,PrP 5UTR inh,Sa ugtP lethal,Mtb hypoxia inh,Mtb hypoxia inh growth,BJeLR viability,Bead autofluor,Sa RN4220 lethal
COc1ccc(C(=O)N2CCN(CCc3ccccc3)CC2)cc1[N+](=O)[O-],-6,1,-1,-2,1,6522,-0.3
CCOc1ccc(-n2c(O)c(C=Nc3ccc(N4CCOCC4)cc3)c(=O)[nH]c2=O)cc1,-5,-6,2,4,9,3235,2.4
Cc1cccc2sc(NNC(=O)c3ccc(S(=O)(=O)N4CCCC(C)C4)cc3)nc12 (configuration not stated),9,-11,0,7,11,4552,7.9
CCOC(=O)C=Cc1ccc2c(c1)S(=O)(=O)N(Cc1ccc(OC)cc1)C2CC(=O)OCC (configuration not stated),x,12,21,9,x,x,8.5
C=CCNC(=S)NN=C1CCS(=O)(=O)c2ccccc21,x,1,-2,-2,x,x,-0.1
COc1ccc(CCNC(=O)c2c(O)c3ccccc3n(C)c2=O)cc1,-20,-8,0,4,-15,3801,1.1
O=C(CCN1CCCCC1c1cccnc1)NCc1ccccc1 (configuration not stated),-7,-2,x,x,-6,5094,4.3
COc1ccc(C2N=C(c3ccccc3)NO2)cc1OC (configuration not stated),-30,1,19,9,2,4681,4.7
Cc1ccccc1NC(=O)Cc1nnc(SCC(=O)NC2=NCCS2)n1C,-25,0,17,-3,-3,3124,-1.0
C#CCNC(=O)C1=C[C@H](c2csc3ccccc23)[C@@H](CCCO)[C@H](OCC)O1,-26,x,x,x,1,3699,x
Cc1n[nH]c(C)c1C(=O)CC1(O)C(=O)N(CCc2ccccc2)c2ccc(Br)cc21 (configuration not stated),-32,-3,3,9,-13,11230,7.3
Cc1nnc(NC(=O)CSc2nnc3c(n2)[nH]c2ccc(Br)cc23)s1,-25,3,14,-2,-3,3134,8.2
COCC(=O)N(c1ccccc1)C(C)C(=O)OC (configuration not stated),-20,0,9,9,14,2932,1.1
O=C(Cn1nc(C(=O)O)c2ccccc2c1=O)Nc1ccc2c(c1)C(=O)c1ccccc1C2=O,x,7,7,10,4,x,5.6
Cc1ccc(-n2ncc3c(NCCCOC(C)C)ncnc32)c(C)c1,-7,-5,x,x,1,4405,3.5
CCn1cc(C(=O)NCc2ccco2)c(=O)c2cc(S(=O)(=O)N3CCc4ccccc4C3)ccc21,-8,3,5,-4,6,20784*,6.8
O=S(=O)(NCc1ccco1)c1ccccc1Br,-16,3,10,9,-9,3816,9.0
CC(=O)Nc1ccc2nc(C3CCCCC3)[nH]c2c1,-1,-6,0,3,-5,8393,-1.0
CCOc1ccc(NC(=O)CN(C)C(=O)C2CCCO2)cc1OCC (configuration not stated),-39,-3,0,9,x,u,-1.2
COc1ccc(-c2n[nH]c(=S)n2/N=C/C=C\c2ccccc2OC)cc1,-30,x,x,x,-13,1972,x
O=C(CCSc1ccc(Cl)cc1)NN=C1CCCCCC1,-20,2,1,10,-1,3655,0.9
O=C(CN1CCN(c2ccccc2)CC1)N/N=C/c1cccc(F)c1,-30,x,x,x,11,2552,x
CCCCCc1ccc(-c2cn(Cc3ccc([N+](=O)[O-])cc3)nn2)cc1,-28,x,x,x,3,3765,x
Cc1ccc(S(=O)(=O)c2cc(C)cc(S(=O)(=O)Nc3ccc(C(=O)O)cc3)c2C)cc1,-14,12,14,7,-3,3745,6.4
O=C(NCc1ccc(F)cc1)Nc1cccc(Cl)c1,-52,-29,4,3,4,2743,-5.5

# Quoted at random: 3 records from the list, in no set order.
SMILES,PrP 5UTR inh,Sa ugtP lethal,Mtb hypoxia inh,Mtb hypoxia inh growth,BJeLR viability,Bead autofluor,Sa RN4220 lethal
CC(=O)Nc1ccc2nc(C3CCCCC3)[nH]c2c1,-1,-6,0,3,-5,8393,-1.0
COc1ccc(C2N=C(c3ccccc3)NO2)cc1OC (configuration not stated),-30,1,19,9,2,4681,4.7
COc1ccc(CCNC(=O)c2c(O)c3ccccc3n(C)c2=O)cc1,-20,-8,0,4,-15,3801,1.1

# Additional entries.
SMILES,PrP 5UTR inh,Sa ugtP lethal,Mtb hypoxia inh,Mtb hypoxia inh growth,BJeLR viability,Bead autofluor,Sa RN4220 lethal
O=C(Nc1cccc(NC(=O)c2cccnc2Cl)c1)c1ccco1,-11,-4,19,9,-3,3128,9.9
Cc1c(C(=O)NC2CCS(=O)(=O)C2)oc2ccccc12 (configuration not stated),-10,3,5,14,-3,5409,-0.2
CCN(CC(=O)NC(=O)NCc1ccco1)Cc1ccccc1,-21,3,7,3,-1,6387,5.8
CN(C)C=Nc1cc(=O)[nH]c(=O)n1Cc1ccccc1,x,-2,-6,8,x,x,-0.6
O=C(NCC1CCCO1)C(c1ccncc1)N(Cc1ccc(F)cc1)C(=O)CN1C(=O)c2ccccc2S1(=O)=O (configuration not stated),-8,-3,-7,1,6,2031,-6.9
Cc1ccc(/C=C/C(=O)N2CC(C)CC(C)C2)o1 (configuration not stated),-5,-10,x,x,-4,2071,-0.6
COc1ccccc1C(CNc1ncnc2sc(C)c(C)c12)N(C)C (configuration not stated),0,-1,-10,6,8,4850,-1.0
COC(=O)c1cc(=O)n(Cc2ccc3c(c2)OCO3)c(=Nc2ccccc2)s1,-32,-2,8,6,-4,6823,-19
Cc1cc(C)c(NC(=O)c2cc(S(=O)(=O)N3CCOCC3)ccc2F)c(C)c1,-15,5,14,3,0,5837,2.3
COCC(C)n1c(C)cc(C(=O)COC(=O)c2ccc(N3CCCC3=O)cc2)c1C (configuration not stated),-21,-3,11,5,-2,4395,-0.4

# Source: PubChem (several laboratories)
